Compound activity (PubChem BioAssay)
AF4-AF9 inh = MLL-AF4/AF9 protein interaction inhibition | actives 0.47% (n = 350,000) | AlphaScreen, biotin-AF4 peptide binding to FLAG-AF9 | AID 651704 | inhibition, % at 10 µM | P42568;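 active means every replicate reaching a set inhibition limit, whatever the replicate mean, cut at about 25% in these data; inconclusive means mean inhibition reaches that limit but some replicates miss it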;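 further: 0% = plate neutral control median and 100% = total signal loss; the record names both 10 and 1 µM as test concentration; the first replicate is given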
Target sequence (P42568 whole entry, looked up): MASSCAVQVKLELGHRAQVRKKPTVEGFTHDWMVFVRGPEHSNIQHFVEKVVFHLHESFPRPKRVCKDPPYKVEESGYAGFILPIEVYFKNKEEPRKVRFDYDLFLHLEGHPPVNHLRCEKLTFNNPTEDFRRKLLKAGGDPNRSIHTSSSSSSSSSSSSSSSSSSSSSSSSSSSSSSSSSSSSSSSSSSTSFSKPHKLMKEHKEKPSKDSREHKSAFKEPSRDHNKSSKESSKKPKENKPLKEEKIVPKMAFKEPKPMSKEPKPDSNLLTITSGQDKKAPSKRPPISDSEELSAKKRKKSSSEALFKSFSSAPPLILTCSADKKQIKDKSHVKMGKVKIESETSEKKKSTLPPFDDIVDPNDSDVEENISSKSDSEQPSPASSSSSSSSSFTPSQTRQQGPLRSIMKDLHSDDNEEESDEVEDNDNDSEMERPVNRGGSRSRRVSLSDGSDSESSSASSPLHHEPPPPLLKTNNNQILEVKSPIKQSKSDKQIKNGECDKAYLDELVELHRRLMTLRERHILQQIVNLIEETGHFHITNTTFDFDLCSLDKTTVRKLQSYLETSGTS
Vif A3G = HIV-1 Vif–A3G interaction blockers – biochemical, TR-FRET, GST-Vif 1-94, biotin-A3G peptide, dose response retest, primary screen (AID 1117319). TR-FRET GST-Vif / biotin-A3G peptide binding; higher % means a stronger effect; test concentration not given here; strong numbers were not always called active. inhibition, %; hits with a dose series show IC50 in µM. actives 0.57% (n = 260,000);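 active means above the screen mean plus three standard deviations and confirmed in dose response; inconclusive means results disagree or hit not tested in dose response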;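 further: Vif residues 1-94 fused to GST binding biotinylated APOBEC3G peptide 110-148; 0% = full assay without inhibitor and 100% = GST in place of GST-Vif; retest series ran down from 100 µM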
RanGTP-Imp inh = inhibitors of RanGTP-importin-beta interaction, primary screen, biochemical, FRET, CFP-Ran, YFP-importin-beta, homogeneous | cell-free CFP-Ran/YFP-importin-beta FRET ratio | actives 1.1% (n = 300,000) | inhibition, % (no concentration beside the values);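 active means most replicates above 15%; inconclusive means exactly half above 15%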;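 further: 0% = DMSO wells and 100% = Ran loaded with GDP instead of GTP; wells of about 40 µL received 100 nL stock; the first replicate is given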
UCH37 DUB inh = blocks the human deubiquitinase UCH37; actives 0.33% (n = 330,000); inhibition, % (no concentration beside the values); purified proteasome/UCH37, Ub-AMC cleavage fluorescence; AID 588478;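 active means mean of two replicates above 20%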;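 further: 0% = compound-free wells with enzyme and 100% = wells lacking proteasome; stock transfer was 100 nL into about 20 µL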
Target sequence (Q9Y5K5 whole entry, looked up): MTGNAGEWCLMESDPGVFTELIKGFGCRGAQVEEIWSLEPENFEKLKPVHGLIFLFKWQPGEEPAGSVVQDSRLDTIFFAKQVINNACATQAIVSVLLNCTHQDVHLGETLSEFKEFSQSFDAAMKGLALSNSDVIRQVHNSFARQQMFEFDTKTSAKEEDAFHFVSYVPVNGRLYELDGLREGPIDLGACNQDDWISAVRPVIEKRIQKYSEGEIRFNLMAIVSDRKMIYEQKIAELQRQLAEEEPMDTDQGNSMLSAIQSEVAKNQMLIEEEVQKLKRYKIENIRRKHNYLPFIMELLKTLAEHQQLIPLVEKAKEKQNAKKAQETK
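Schedule: 30 min plus 25 min, room temperature / Material: human UCH37 within purified proteasomes / Technique: AMC fluorescence intensity at 355/460 nm / Buffer or medium: pH 7.4 Tris-HCl (50 mM) with ovalbumin, ATP-MgCl2, DTT / Controls: wells without proteasome as full block, compound-free enzyme plus substrate as uninhibited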
FGF22 binding = shifts melting point of recombinant human FGF22 | recombinant FGF22 thermal shift, SYPRO orange fluorescence; percent of sucrose octasulfate shift, DMSO zero | calls only at 9.99 µM | Q9HCT0 | actives 1.5% (n = 340,000) | AID 651658;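 active means melting point raised past a set limit in the mean and every replicate; inconclusive means no clear call; three in four hits are not shown here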
Target sequence (Q9HCT0 whole entry, looked up): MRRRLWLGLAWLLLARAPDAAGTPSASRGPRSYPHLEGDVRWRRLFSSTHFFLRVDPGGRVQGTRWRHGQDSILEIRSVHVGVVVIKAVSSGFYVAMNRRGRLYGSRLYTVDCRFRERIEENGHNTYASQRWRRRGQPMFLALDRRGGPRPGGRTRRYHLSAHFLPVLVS
Ecoli growth = E. coli growth inhibition; Escherichia coli growth, OD600, 23 h; hits give low values; OD600 absorbance (no concentration beside the values); actives 0.21% (n = 330,000); AID 1053175;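 active means OD600 absorbance below the run mean of sample wells minus 3.6 SD, in any replicate, cut at about 0.56 in these data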;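 further: stock transfer was 300 nL into about 60 µL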
HNF4A DNA FP = change in binding of human HNF4 alpha to DNA | actives 0.3% (n = 360,000) | activity change, % at 10 µM | AID 1224865 | P41235 | HNF4a-FITC DNA binding, fluorescence polarization, 1 h; in the data active means activity change above about 30%, passing the limit was not always enough;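 further: controls were the assay level and a saturating level of protein; the project sought stronger binding though the title names inhibitors; some compounds called inactive have numbers as strong as hits; positive values seem to mean higher polarization but the record does not say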
An asterisk follows results filed as active; i = inactive; u = inconclusive; x = no result given; & = joins results of further samples. This is a subset. The share of hits here may be higher or lower than overall.

SMILES	AF4-AF9 inh	Vif A3G	RanGTP-Imp inh	UCH37 DUB inh	FGF22 binding	Ecoli growth	HNF4A DNA FP
O=C1CC(NCC2CCCO2)C(=O)N1c1ccc(Cl)cc1 (centres undefined)	-0.7	16%	-2.4	1.6	i	0.68	-0.5
Cc1cc(O)ccc1-c1ccc2nncn2c1	-2.3	x	x	x	i	x	-0.2
CCOc1ccc(N2Cc3ncccc3C2=O)cc1	x	-2%	4.4	-4.2	x	0.76	1.2
O=[N+]([O-])c1cccc(OCCCN2CCC(Cc3ccccc3)CC2)c1	7.2	x	2.8	4.0	i	0.65	2.0
CC(C)(C#N)C(C)(C)c1nn[nH]n1	2.4	2%	-2.5	1.5	i	0.68	1.9
Cc1cc(N2CCCCC2C)nc(-c2ccccc2O)n1 (centres undefined)	-12	-4%	-2.0	-25	i	0.63	-4.5
CN(c1ccccc1)c1nc(N)c([N+](=O)[O-])c(Nc2ccccc2)n1	3.6	-6%	6.7	6.3	i	0.64	-0.1
O=C(O)c1cc(C2CC2)nn1-c1ccccc1	x	24%	u	1.6	x	0.71	-0.4
Cc1nn(-c2ccccc2)c(NC(=O)c2cccs2)c(-c2ccccc2Cl)c1=O	0.8	12%	-2.3	2.8	i	0.66	4.3
Cc1ccccc1C(=O)N1CCC(C(=O)Nc2ccc(S(=O)(=O)N3C(C)CCCC3C)cc2)CC1 (centres undefined)	4.0	x	x	-1.6	i	0.69	-4.2
CCc1ccc(CNC(=O)C2CCN(S(=O)(=O)N3CC(C)CC(C)C3)CC2)cc1 (centres undefined)	-0.9	x	3.6	x	i	x	-0.7
COc1cccc(N(C(=O)c2ccco2)c2nc(-c3sc(NC(=O)c4ccco4)nc3C)cs2)c1	x	-17%	-2.5	-11	i	0.73	12
COc1cc(C2NC(=S)NC(c3ccccc3)=C2C(C)=O)ccc1O (centres undefined)	2.1	29%	-0.3	8.8	i	0.65	-2.8
Cc1ccc(-n2ccc(=O)c(C(=O)Nc3ccc(S(=O)(=O)Nc4nccc(C)n4)cc3)n2)cc1	-0.9	x	-1.4	9.8	i	0.67	-11
Nc1nonc1C(=O)OCC(=O)N1CCOCC1	x	14%	3.6	0.1	x	0.69	1.7
Cc1ccc(OCC(=O)NCc2ccco2)c([N+](=O)[O-])n1	-1.8	-2%	0.1	1.3	i	0.71	6.0
CCSc1ccccc1C(=O)n1nnc2ccccc21	-3.9	-7%	x	0.9	i	0.74	2.4
O=[N+]([O-])c1ccc2nc(/C=C/c3ccc(Cl)cc3)[nH]c2c1	x	-6%	-2.6	0.9	x	0.61	-0.6
Cc1ccc(C(=O)N2CCC3(CC2)Oc2ccc(F)cc2C(=O)C32CC(c3cccnc3)=NO2)s1 (centres undefined)	7.1	4%	3.2	2.7	i	0.69	4.6
O=C(Nc1nnc([C@H]2C[C@H](O)[C@@H](CO)O2)s1)c1cccc(Cl)c1	-2.7	x	x	x	i	x	5.6
Cc1noc(C)c1S(=O)(=O)N(C)C[C@H]1Oc2ccc(NS(=O)(=O)c3ccccc3)cc2C(=O)N([C@H](C)CO)C[C@@H]1C	2.0	x	x	1.5	i	0.7	-4.2
CC(C)Cn1cnc2c(c1=N)C(c1ccccc1)C1=C(CC(C)(C)CC1=O)O2 (centres undefined)	x	-2%	-4.6	3.7	i	0.65	-0.6
O=C(CCCN1C(=O)C(=Cc2ccc3c(c2)OCO3)SC1=S)Nc1ccc(C(=O)O)c(O)c1	11	x	x	x	i	x	6.8
c1ccc(-c2noc(CN3CCCC(OCc4ccccn4)C3)n2)cc1 (centres undefined)	-2.0	-2%	4.7	0.7	i	0.69	1.1
Fc1ccc(Nc2nnc(C(F)(F)F)s2)cc1	-1.9	x	-1.5	2.4	i	0.61	2.7
SMILES	AF4-AF9 inh	Vif A3G	RanGTP-Imp inh	UCH37 DUB inh	FGF22 binding	Ecoli growth	HNF4A DNA FP
Fc1ccc(CSc2nnc(-c3ccncc3)o2)cc1	-1.3	2%	-2.9	3.6	i	0.71	-1.4
CC(NC(=O)C12CC3CC(CC(C3)C1)C2)c1ccc2c(c1)OCCO2 (centres undefined)	x	2%	4.0	2.7	x	0.66	-1.1
CCOc1ccc(N(CC(=O)NCCSCc2ccco2)S(=O)(=O)c2ccc(F)cc2)cc1	0.5	x	0.0	-1.1	i	0.7	-2.2
COc1ccc(NC(=O)Nc2cccc(F)c2)c(OC)c1	-2.3	0%	-3.8	0.9	i	0.63	1.8
c1ccc2c(c1)CCCC2C1=NCCN1 (centres undefined)	-0.8&2.2	23%	2.1	2.7	i	0.69	3.2
O=S(=O)(NCCCCCNS(=O)(=O)c1ccccc1)c1ccccc1	-1.0	5%&-7%	3.6	1.4	x	0.75	-0.3
O=C(Nc1ccc(F)cc1)c1ccc2nc[nH]c2c1	0.8	4%	1.1	0.4	i	0.71	2.3
COC(=O)CN1C(c2ccc(OC)cc2)=Nc2ccc(Cl)cc2C1c1ccccc1 (centres undefined)	x	28%	3.4	-2.0	x	0.73	0.3
O=c1c2ccccc2nc(/C=C/c2ccccc2)n1CCCO	5.4	-1%	6.2	2.6	i	0.66	-1.1
O=C(O)CCn1c(=S)n(CCC(=O)O)c2ccccc21	0.1	2%	2.4	3.4	i	0.69	-0.7
CCOC(=O)c1[nH]c(C)c(C(=O)N2CCN(C(=O)c3ccco3)CC2)c1C	2.7	14%	11	1.7	i	0.66	-4.0
CCCc1nc(NCc2ccco2)c(C#N)c2c1COC(C)(C)C2	x	14%	-0.5	-7.4	x	0.7	-1.8
COC(=O)[C@@]12C[C@@H](CC(=O)NCc3cccc(C(F)(F)F)c3)C(=O)N(Cc3ccccc3)C1=CCC(C)(C)C2	-0.3	x	x	x	x	x	0.5
O=c1[nH]c2ccccc2c(O)c1-c1ccccc1	-3.0	x	0.0	3.6	i	0.76	-1.7
Cc1cccc(C(C)C)c1NC(=O)C(C)OC(=O)Cc1n[nH]c(=O)c2ccccc12 (centres undefined)	-12	2%	-1.7	1.0	i	0.71	-2.2
CCC(C)NC(=O)COC(=O)c1cc([N+](=O)[O-])ccc1Sc1nc(C)cs1 (centres undefined)	x	u	2.2	-5.7	x	0.79	-0.1
Nc1ncc(Br)cc1S(=O)(=O)Nc1cc(C(F)(F)F)cc(C(F)(F)F)c1	-9.1	x	-3.2	x	i	x	-0.6
Cc1ccc2c(C)c(C(=O)N(C)Cc3ccncn3)oc2c1C	-10	-5%	-2.9	3.6	i	0.7	2.5
Cc1c(CN2CCCC(C(=O)c3cccc(OC(C)C)c3)C2)c(=O)n(-c2ccccc2)n1C (centres undefined)	9.4	x	-2.7	-6.6	i	0.67	0.4
CCOC(=O)C1=CN(CC)S(=O)(=O)NC1c1ccc(C(F)(F)F)cc1 (centres undefined)	-11	7%	x	0.2	i	0.67	-2.0
O=C(N/N=C/c1ccco1)c1cc(=O)[nH]c2ccccc12	-1.6	0%	u	x	i	x	2.7
N#Cc1cccc(NC(=O)CNc2cccc(S(=O)(=O)N3CCCC3)c2)c1	13	3%	5.7	4.4	i	0.7	-0.7
CC(=O)NCCNc1nc2cc(-c3ccc(C(=O)N4CCN(C)CC4)cc3)sc2c(=O)n1C	-0.9	x	x	x	i	x	2.0
Nc1cc(=O)[nH]c(SCC(=O)NCC2CCCO2)n1 (centres undefined)	x	25%	1.1	3.2	x	0.67	-0.7
O=C(c1ccc(Cl)cc1)N1CCN(c2cccc3[nH]ccc23)CC1	15	10%	0.4	1.9	i	0.72	-1.9

Five entries from above, set out differently:
Values in the order – AF4-AF9 inh	Vif A3G	RanGTP-Imp inh	UCH37 DUB inh	FGF22 binding	Ecoli growth	HNF4A DNA FP
- CCCc1nc(NCc2ccco2)c(C#N)c2c1COC(C)(C)C2
 : x	14%	-0.5	-7.4	x	0.7	-1.8
- CC(=O)NCCNc1nc2cc(-c3ccc(C(=O)N4CCN(C)CC4)cc3)sc2c(=O)n1C
 : -0.9	x	x	x	i	x	2.0
- Cc1ccc(-n2ccc(=O)c(C(=O)Nc3ccc(S(=O)(=O)Nc4nccc(C)n4)cc3)n2)cc1
 : -0.9	x	-1.4	9.8	i	0.67	-11
- Fc1ccc(CSc2nnc(-c3ccncc3)o2)cc1
 : -1.3	2%	-2.9	3.6	i	0.71	-1.4
- O=S(=O)(NCCCCCNS(=O)(=O)c1ccccc1)c1ccccc1
 : -1.0	5%&-7%	3.6	1.4	x	0.75	-0.3

Additional results.
SMILES	AF4-AF9 inh	Vif A3G	RanGTP-Imp inh	UCH37 DUB inh	FGF22 binding	Ecoli growth	HNF4A DNA FP
CCN(CC)CCCn1c(=S)[nH]c2ccccc2c1=O	x	33%	4.2	-0.9	x	0.75	1.0
CCS(=O)(=O)N1N=C(c2ccccc2)CC1c1ccc2nccnc2c1 (centres undefined)	x	4%	-3.7	0.6	x	0.71	53*
COc1ccc2cc(C(C)=O)c(=O)oc2c1	x	u	19*	-6.8	x	0.68	0.2
Cc1ccc(S(=O)(=O)N2CCOCC2)cc1NC(=O)COC(=O)c1ccc(Cl)s1	2.3	-18%	x	2.1	i	0.67	-1.3
Cc1ccc(NC2CCCN(C(=O)c3cn(C)c4ccccc34)C2)cc1C (centres undefined)	9.2	3%	0.7	1.6	i	0.68	1.7
CC(=O)Nc1ccc(NS(=O)(=O)c2cccc3nonc23)cc1	-0.2	x	-0.1	5.1	i	0.72	-4.9
CC(=O)N(c1c(C)n(C)n(-c2ccccc2)c1=O)C1(C(=O)NC2CCCC2)CCCCC1	x	-4%	0.4	1.0	x	0.73	-2.0
COC(=O)CCC(=O)NC(=S)Nc1ccc(S(=O)(=O)N2CCCC2)cc1	-8.1	-6%	-1.6	3.6	i	0.67	-0.7
CNC[C@@H]1Oc2ccc(NC(=O)Nc3ccccc3)cc2C(=O)N([C@@H](C)CO)C[C@H]1C	-0.9&3.1	x	x	2.4	i	0.79	8.0
CCc1ccc(OCC(=O)Nc2ccncc2)c(Br)c1	4.2	5%	-0.8	6.7	i	0.66	-2.3
COc1cccc(C(=O)OCC(=O)NCCNC(=O)COC(=O)c2cccc(OC)c2OC)c1OC	-2.4	x	-1.3	2.9	i	0.71	-3.4
COc1ccc(S(=O)(=O)N2CCCCC2)cc1NC(=O)C1CCCO1 (centres undefined)	-2.4	1%	-2.4	3.3	i	0.65	0.1
CCn1cc(C(=O)Nn2cnnc2)c(=O)c2ccc(C)nc21	-27	x	6.1	4.2	i	0.65	-4.5
CN1C(=O)C(=O)N(CC(=O)N2CCc3ccccc32)C1=O	x	2%	5.3	2.2	x	0.66	-3.2
CS(=O)(=O)N(CC(=O)N1CCCC1)Cc1ccc(F)cc1	-4.4	-2%	1.0	4.2	i	0.67	1.1
CC1(C(=O)NS(=O)(=O)c2ccc(C#N)cc2)CCN1C(=O)Cc1ccc(-c2ccccc2)cc1 (centres undefined)	-3.6	x	x	x	i	x	6.7
Cc1ccc(C)c(CN2CCCNC2=O)c1	x	-2%	u	-0.1	x	0.66	2.9
O=C(CN1C(=O)NC2(CCCCCC2)C1=O)c1ccc(Cl)cc1	-2.6	-14%	x	2.0	i	0.67	1.1
COc1ccc(CN2CCCC(CO)(Cc3cccc(Cl)c3)C2)cc1OC (centres undefined)	-4.6	x	1.3	1.5	i	0.69	-0.3
CC1CN(C(=O)c2cccc(S(=O)(=O)N3CCOCC3)c2)CC(C)O1 (centres undefined)	x	10%	-3.4	1.4	x	0.65	-0.6
Cc1nc2c(c(C)c1C#N)C(=O)c1ccccc1-2	2.1	21%	-0.6	-0.6	i	0.64	2.7
O=C(CCN1CCCO1)N1CCCC(N2CCN(c3ccccc3F)CC2)C1 (centres undefined)	3.1	x	0.7	2.8	i	0.71	-1.6
Cn1c(N)c(C(=O)COC(=O)COc2ccc(Cl)cc2)c(=O)n(C)c1=O	0.6	-8%	x	1.2	i	0.68	0.0
